# D2 agonist = Beta-Arrestin HTS for Positive Allosteric Modulators of the Human D2 Dopamine Receptor: Agonists. D(2) dopamine receptor (Homo sapiens), P14416. DiscoveRx PathHunter D2 beta-arrestin, luminescence, 90 min; 100% = 57 uM dopamine signal. activation, % (concentration not given with the values). hit rate 0.084% among 360,000. AID 624465, 2012; in the data active = activation above about 40%; inconclusive = about 15% to 40%; inactive = below about 15%; also: compound concentration not given in the record; the text of the record calls up to 30% inactive
#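 DiscoveRx PathHunter D2 beta-arrestin cells (2,100/well) attached overnight, then compound-stimulated 90 min at 37 C in HBSS/10 mM HEPES/0.1% Tween-20 buffer; beta-galactosidase complementation read by luminescence after 1 h at ambient temperature. Dopamine 57 uM final (EC100) as control.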
# TRPML1 agonist = qHTS for Agonists of the Human Mucolipin Transient Receptor Potential 1 (TRPML1); TRPML1-expressing cells, Ca2+ dye fluorescence, FDSS; host cell line not named in the record; reference of the full effect not given here; activation, % (test concentration not listed); hit rate 0.12% among 410,000; AID 624414, 2012; in the data active = activation above about 50%; inconclusive = about 30% to 50%; inactive = below about 30%; also: 0% is about no effect; the text of the record puts the active cut at 80%
#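 In this qHTS format, compounds were pin-transferred onto Ca8-dye-loaded TRPML1-DL cells induced with Tet overnight, and intracellular Ca2+ fluorescence was recorded kinetically for 110 s after a 10 s baseline. A subsequent 4uM final 54-4 (EC80) addition followed by a second 110 s read served as the antagonist phase.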
# PINK1 modulator = A Quantitative High throughput Screen to Identify Chemical Modulators of PINK1 Expression; PINK1 immunofluorescence, high-content cytometry, 24 h; Potency, µM (titrated, usually from 76.6 µM), for inactives: at the highest dose activation (PINK1 increase), hits mostly activators; hit rate 0.2% among 410,000; AID 624263, 2012; active = well fitted activation curve with a large enough effect; inconclusive = small, poorly fitted or top-dose-only effect; inactive = flat fitted curve, though single readings scatter; cell line not stated here;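 also: potency is read from the fitted curve at half-maximal effect; % of control where 0% means no effect; nearly all actives have a fitted effect of over 65% in size; a mitochondrial uncoupler was the plate control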
#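 A stable cell line was treated with compounds at 5 concentrations for 24 hours, with CCCP as control. PINK1 levels and mitochondrial localization were measured by immunofluorescence with mitochondrial, cell and nuclear markers after fixation, read by laser-scanning cytometry.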
# Six1-Eya2 blk = qHTS Assay for Inhibitors of the Six1/Eya2 Interaction. Homeobox protein SIX1 (Homo sapiens) + Protein phosphatase EYA2 (Homo sapiens), …. AlphaScreen GST-Six1/His-Eya2 binding, biochemical; hits give low values; control for the full effect not named in the record. activity change, % (concentration not given with the values). hit rate 0.56% among 360,000. AID 651725, 2012; in the data active = activity change below about -65%; inconclusive = about -30% to -65%; inactive = above about -30%; also: % is scaled to controls: 0 for no effect and ±100 for the full control effect
# Target sequence (O00167 whole entry, looked up): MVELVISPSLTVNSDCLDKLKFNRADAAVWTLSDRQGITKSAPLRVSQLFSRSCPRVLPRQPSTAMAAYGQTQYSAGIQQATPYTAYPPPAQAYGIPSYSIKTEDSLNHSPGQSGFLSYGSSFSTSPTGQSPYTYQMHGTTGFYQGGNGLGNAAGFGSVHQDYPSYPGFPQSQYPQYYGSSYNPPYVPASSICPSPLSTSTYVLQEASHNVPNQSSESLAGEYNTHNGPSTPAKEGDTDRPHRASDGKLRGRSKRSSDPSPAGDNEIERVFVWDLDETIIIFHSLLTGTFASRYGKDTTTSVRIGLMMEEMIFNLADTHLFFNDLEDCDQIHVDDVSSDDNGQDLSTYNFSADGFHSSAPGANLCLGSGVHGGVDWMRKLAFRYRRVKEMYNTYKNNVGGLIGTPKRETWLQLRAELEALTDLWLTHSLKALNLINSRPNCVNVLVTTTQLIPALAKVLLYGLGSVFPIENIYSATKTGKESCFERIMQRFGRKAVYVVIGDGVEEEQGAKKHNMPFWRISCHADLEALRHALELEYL
# Target sequence (Q15475 whole entry, looked up): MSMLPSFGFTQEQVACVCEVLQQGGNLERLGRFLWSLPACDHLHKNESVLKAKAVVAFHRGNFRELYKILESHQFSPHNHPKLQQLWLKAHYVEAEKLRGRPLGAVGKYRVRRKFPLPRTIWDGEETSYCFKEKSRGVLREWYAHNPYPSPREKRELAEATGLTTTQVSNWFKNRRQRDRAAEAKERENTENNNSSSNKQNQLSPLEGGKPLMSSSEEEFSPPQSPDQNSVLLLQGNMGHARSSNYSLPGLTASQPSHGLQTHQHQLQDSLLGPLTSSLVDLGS
#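 Six1/Eya2 binding was read as AlphaScreen signal after compounds were pinned into GST-Six1 plus His-tagged Eya2 (5X stock 250/500 nM) in pH 8.0 Tris/NaCl/TCEP buffer, beads added, then incubated 1 h, 37 C, dark.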
# D2 potentiator = Beta-Arrestin HTS for Positive Allosteric Modulators of the Human D2 Dopamine Receptor: Potentiators. D(2) dopamine receptor (Homo sapiens), P14416. hit rate 0.23% among 360,000. potentiation, % (no concentration beside the values). DiscoveRx D2 beta-arrestin cells, luminescence, 90 min; 100% = 57 uM dopamine signal; active = potentiation of 50% or more; inconclusive = 30% to 50%; inactive = 30% or less;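 also: compound concentration not given in the record; tested on top of an EC20 dose of dopamine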
#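 D2 cells co-treated with compound plus 50 nM dopamine (EC20) for 90 min at 37 deg C to detect potentiation. Beta-arrestin recruitment was read as enzyme-fragment luminescence after 1 h at ambient temperature. Full response was set by 57 uM dopamine.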
# CtBP-E1A blk = qHTS Assay for Inhibitors of the CtBP/E1A Interaction | AlphaScreen GST-E1A/His-CtBP binding, 1536-well; hits give low values; control for the full effect not named in the record | activity change, % (test concentration not listed) | hit rate 0.49% among 340,000 | AID 651724, 2012; in the data active means activity change below about -65%; inconclusive means about -30% to -65%; inactive means above about -30%; also: % is scaled to controls: 0 for no effect and ±100 for the full control effect; compound concentration not given in the record
#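 In 5 uL wells, 23 nL compound meets equimolar GST-E1A and His-CtBP (5X stock 125 nM each) for 2 h, 37 °C. Beads (5X, 50 ug/mL) then 1 h, 37 °C, dark.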
# Active calls of the source: *; ? = inconclusive; nt = no result given; & = joins results of further samples; [ ] = dose if it differs, or a comment.
# Under each structure – D2 agonist	TRPML1 agonist	PINK1 modulator	Six1-Eya2 blk	D2 potentiator	CtBP-E1A blk
[1] Cc1ccc(N/N=C2\COC(C)(C)CC2=O)cc1
    3.7	0.1	-1.9%	-10	-6	-1
[2] COc1ccc2oc(C(=O)OCC(=O)NC(C)(C#N)C3CC3)c(C)c2c1 (configuration not stated)
    1.2	0.9	-5.6%	-15	7	-1
[3] COCc1ccc(C(=O)NC2CCCc3c2cnn3-c2cc(C)cc(C)c2)s1 (configuration not stated)
    -5.3	1.6	2.0%	-1	-10	2
[4] O=C(NCc1ccccc1)[C@@H]1CCCN1C(=O)[C@@H]1CCCN1C(=O)c1cccc2ccccc12
    nt	-0.9	0.7%	0	nt	-12
[5] CNC(=O)Nc1ccccc1NC(=O)NC
    -4.6	-0.4	?	29	15	44
[6] O=C(c1ccco1)N1N=C(C2CCCCC2)CC1(O)C(F)(F)F (configuration not stated)
    -2.5	-0.1	5.3%	6	-14	-10
[7] O=C(NCc1ccc2c(c1)OCO2)c1cc2ccccc2o1
    0.1	1.8	-3.8%	0	2	-12
[8] CCN(CC(=O)NCc1ccc(Cl)cc1)C(=O)CNS(=O)(=O)c1ccc(NC(C)=O)cc1
    -1.7	-0.6	-1.4%	21	-30	0
[9] Cc1ccc(NC2CCCCC2NS(=O)(=O)c2ccc(Cl)cc2)cc1 (configuration not stated)
    5.5	-0.5	10%	-8	3	nt
[10] O=C(NC1CCCCC1)c1ccc2[nH]c(=O)c(=O)[nH]c2c1
    0.9	-0.5	-0.4%	2	1	nt
[11] C/C=C(\C)C(=O)NCCN1C2=NC[C@H](C(C)C)N2C[C@H]1Cc1ccc(O)cc1
    -3.9	-0.9	0.7%	4	-19	-7
[12] O=C(CSc1nnc(-c2ccncc2)n1CC1CCCO1)Nc1cccc(O)c1 (configuration not stated)
    -2.9	-0.4	14%[38.3 µM]	0	-4	7
[13] CN1CCN(CC(=O)NN(Cc2ccccc2)c2ccccc2)CC1
    -9.4	0.1	-2.9%	19	-15	-3
[14] CC(C)(CO)Cc1cc(C(C)(C)C)c(O)c(C(C)(C)C)c1
    3.4	1.3	2.7%	-2	-6	3
[15] O=C(O)CCC(=O)Nc1cccc(-c2csc(-c3ccccc3)n2)c1
    4.0	-0.3	-0.7%	-10	1	-1

# Next section
# Under each structure – D2 agonist	TRPML1 agonist	PINK1 modulator	Six1-Eya2 blk	D2 potentiator	CtBP-E1A blk
[16] Cn1c(SCC(=O)Nc2ccc(F)cc2F)nnc1-c1cccnc1
    -3.1	0.8	-1.3%	9	-2	-7
[17] Cc1cccc(NC(=O)NC2CCCCCCC2)c1C
    1.8	1.2	6.3%	8	-6	5
[18] Cc1ccc(S(C)(=O)=O)cc1C(=O)Nc1ccc(S(=O)(=O)Nc2nccs2)cc1
    -3.1	-0.5	-2.7%	5	-3	6
[19] CC1CCCCN1C(=O)c1cc2c(=O)n3ccccc3nc2s1 (configuration not stated)
    -1.7	2.0	-0.5%	33	0	-1
[20] Cc1ccc(-n2nc3c(N4CCC(C(=O)NCc5ccccc5C)CC4)nnc(C)c3c2C)cc1
    -2.6	2.3	-1.3%	10	-4	0
[21] O=C(Nc1nnc(C2CCCC2)s1)C1CCN(S(=O)(=O)c2ccc(Cl)cc2)CC1
    2.2	-0.1	nt	1	-11	7
[22] Cc1cc[n+](-c2[nH]c(=O)sc2/C=N/N=C(\[O-])c2ccccc2)cc1
    -4.4	1.1	1.1%	-15	-3	-9
[23] COc1cccc(-c2ccc(SCc3ccccn3)nn2)c1
    -2.7	-1.0	-0.5%	1	-16	-23
[24] COc1ccc(OC)c(-c2csc(NC(=O)COC(=O)C3(C)CC3(Cl)Cl)n2)c1 (configuration not stated)
    ?	3.2	11%	-10	1	-8
[25] Cc1c(CCC(=O)NC2CC2)c(=O)oc2c(C)c(O)ccc12
    -5.3	nt	-1.1%	-12	-59	-15
[26] COC(=O)c1ccc(CCc2cc(O)ccc2O)cc1
    11	-0.1	3.4%	-15	?	-4
[27] O=C(O)c1ccc(Br)cn1
    -0.3	-0.3	1.8%	?	-9	-21
[28] COc1cc(/C=C2\SC(c3ccc(C)cc3)=NC2=O)cc(OC)c1O
    -2.7	0.1	-0.2%[38.3 µM]	-15	-18	?
[29] Cc1ccccc1OCC1CNC(=O)O1 (configuration not stated)
    -3.6	0.2	0.2%	3	-8	nt
[30] CCN(CC)c1cc(C(F)(F)F)nc(-c2ccccn2)n1
    0.4	0.8	8.1%[38.3 µM]	-1	-1	4

# Remaining list, next part:
entry	canonical_smiles	D2 agonist	TRPML1 agonist	PINK1 modulator	Six1-Eya2 blk	D2 potentiator	CtBP-E1A blk
31	CN(C)c1ccc(C=C2C(=O)OC(C)(C)OC2=O)cc1	0.7	0.1	2.5%	5	-1	3
32	O=C(NCCc1c[nH]c2ccccc12)C1CCN(Cc2ccc(Br)cc2)CC1	0.5	0.2	3.9%	-13	-9	nt
33	O=C(Nc1ccccc1Sc1ccccc1)c1ccc(F)cc1	-3.2	5.6	7.5%	42	-5	47
34	CC1(C)CC(=O)C=C(NCc2cccc(C(F)(F)F)c2)C1	-2.2	0.6	2.1%	5	-3	-4
35	CCC(C)NCCOCCOc1ccc(Br)cc1C (configuration not stated)	-0.7	0.5	-0.6%	11	-35	10
36	COCCN(C(=O)COC(=O)c1ccc2c(c1)OCCO2)c1c(N)n(Cc2ccccc2)c(=O)[nH]c1=O	-0.7	-0.3	0.9%	7	-7	2
37	O=C(NCCCN1CCCC1=O)c1cccc(N2CCCC2=O)c1	-3.2	1.1	-2.1%	1	-3	3
38	O=C(Nn1cnnc1)c1ccccc1-c1ccccc1	-5.0	-0.1	1.0%	2	-7	3
39	CC(CN1CCCCC1)OC(=O)c1ccccc1Cl (configuration not stated)	-2.0	-0.5	5.6%	5	-15	8
40	Cc1ccc(Cn2cc(CN(C)C3CN(Cc4cn(Cc5ccc(C)cc5)nn4)S(=O)(=O)C3)nn2)cc1 (configuration not stated)	nt	-0.7	-1.1%	10	nt	-1
41	Cc1ccccc1NC(=O)Cc1nc(COC(=O)c2ncc(Cl)c(Cl)c2Cl)cs1	8.3	2.2	0.5%	-11	7	4
42	CCCN1CCC(=O)N(CCSc2ccccc2)CC1	1.8	-0.4&-0.3	3.1%	3	-52	-25
43	CC(C)(C)OC(=O)N1CCN(C(=O)c2[nH]c(C(F)(F)F)nc2-c2ccccc2)CC1	9.9	-0.4	0.7%	23	4	0
44	Cc1ccc(-c2nnc(SCC(=O)NC3CCS(=O)(=O)C3)nc2-c2ccc(C)cc2)cc1 (configuration not stated)	-7.5	-0.3	6.1%	13	-3	4
45	COc1ccc(NC(=O)CN2CCN(S(=O)(=O)c3cccs3)CC2)cc1Cl	2.6	1.0	5.2%	-3	-1	15

# A second format for part of the listing above:
39) CC(CN1CCCCC1)OC(=O)c1ccccc1Cl (configuration not stated)
  D2 agonist = -2.0 | TRPML1 agonist = -0.5 | PINK1 modulator = 5.6% | Six1-Eya2 blk = 5 | D2 potentiator = -15 | CtBP-E1A blk = 8

40) Cc1ccc(Cn2cc(CN(C)C3CN(Cc4cn(Cc5ccc(C)cc5)nn4)S(=O)(=O)C3)nn2)cc1 (configuration not stated)
  D2 agonist = nt | TRPML1 agonist = -0.7 | PINK1 modulator = -1.1% | Six1-Eya2 blk = 10 | D2 potentiator = nt | CtBP-E1A blk = -1

41) Cc1ccccc1NC(=O)Cc1nc(COC(=O)c2ncc(Cl)c(Cl)c2Cl)cs1
  D2 agonist = 8.3 | TRPML1 agonist = 2.2 | PINK1 modulator = 0.5% | Six1-Eya2 blk = -11 | D2 potentiator = 7 | CtBP-E1A blk = 4

# Compounds 31 through 34, reprinted for reference:
entry	canonical_smiles	D2 agonist	TRPML1 agonist	PINK1 modulator	Six1-Eya2 blk	D2 potentiator	CtBP-E1A blk
31	CN(C)c1ccc(C=C2C(=O)OC(C)(C)OC2=O)cc1	0.7	0.1	2.5%	5	-1	3
32	O=C(NCCc1c[nH]c2ccccc12)C1CCN(Cc2ccc(Br)cc2)CC1	0.5	0.2	3.9%	-13	-9	nt
33	O=C(Nc1ccccc1Sc1ccccc1)c1ccc(F)cc1	-3.2	5.6	7.5%	42	-5	47
34	CC1(C)CC(=O)C=C(NCc2cccc(C(F)(F)F)c2)C1	-2.2	0.6	2.1%	5	-3	-4

# The listing continues:
entry	canonical_smiles	D2 agonist	TRPML1 agonist	PINK1 modulator	Six1-Eya2 blk	D2 potentiator	CtBP-E1A blk
46	CCOc1ccc(NC(=O)CN(C)C(=O)c2cccnc2Sc2ccc(C)c(C)c2)cc1OCC	-1.2	0.4	2.3%	5	7	-7
47	CCOc1ccc(NC(=O)CN2CCN(CC(=O)Nc3ccc(F)c(F)c3)CC2)cc1	1.9	0.0	-1.9%	6	-2	-3
48	CC(C)N(C(=O)Cn1cc(S(=O)(=O)CC(=O)NCc2ccccc2)c2ccccc21)C(C)C	-4.2	0.3	-1.1%	7	1	0
49	Cc1cccc(N2CCN(S(=O)(=O)c3ccc4c(c3)NC(=O)CO4)CC2)c1C	-2.9	-0.4	0.8%	-5	-4	0
50	COc1ccc(/C=C/C(=O)CCC(=O)O)cc1	-6.0	0.6	-0.5%	-2	-4	7
51	Cc1c(Nc2nc(-c3cccc([N+](=O)[O-])c3)cs2)c(=O)n(-c2ccccc2)n1C	0.5	1.6	-2.0%	-3	-3	-7
52	COc1ccc(/C=C(\C#N)C(=O)Nc2cc(S(=O)(=O)N3CCCCC3)ccc2N2CCCCC2)cc1	-3.9	-1.3	1.2%	-8	10	1
53	CCc1ccc([C@@H]2CC=C(C(=O)O)[C@H](c3ccccc3F)N2S(=O)(=O)c2ccc(C)cc2)cc1	-4.0	-0.3	-1.3%	13	-5	-25
54	COC(=O)c1sc(N2C(=O)C(O)=C(C(=O)c3ccc(C)o3)C2c2ccc([N+](=O)[O-])cc2)nc1C (configuration not stated)	-0.5	-0.2	1.0%	-12	-5	-13

# Bioassay records (PubChem)
